# Bioassay records from PubChem.
# SARS PLP yeast: blocks SARS-CoV papain-like protease in a yeast assay | AID 485353 | Potency, µM (doses to about 32.9 µM), for the others: at the highest dose activity, positive = growth rescue | S. cerevisiae expressing SARS-CoV PLpro, growth rescue; control for the full effect not named in the record | 330,000 tested, 0.19% active; active means well fitted rising curve with a large enough effect; inconclusive means small, poorly fitted or top-dose-only effect; inactive means no such curve, though single readings can be large or run the other way; further: 0% is about no effect; nearly all actives have a fitted effect of over 55% in size; growth read by luminescence after 48 h
# 2A StopGo: lowers the luciferase signal of an FMDV 2A StopGo reporter. human cells with a luciferase reporter of 2A StopGo recoding; control for the full effect not named in the record. Potency, µM (series often up to 57.9 µM), inactives show top-dose signal change, negative = less light. 410,000 tested, 1.2% active. AID 1159524; active = well fitted falling curve with a large enough effect; inconclusive = small, poorly fitted or top-dose-only effect; inactive = no such curve, though single readings can be large or run the other way; tested in HEK293T cells; further: on the % scale 0 is the no-effect control and ±100 the full control effect; nearly all actives have a fitted effect of over 45% in size; luciferase light after 4 h
# RE007 growth inh: less growth of the S. pombe RE007 Vpr strain | S. pombe RE007 Vpr strain, BacTiter-Glo ATP luminescence, 24 h; control for the full effect not named in the record | Potency, µM (top dose mostly 92.2 µM), for inactives: at the highest dose activity change, negative = less growth | 360,000 tested, 0.21% active; active = well fitted falling curve with a large enough effect; inconclusive = small, poorly fitted or top-dose-only effect; inactive = no such curve, though single readings can be large or run the other way;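 further: on the % scale 0 is the no-effect control and ±100 the full control effect; nearly all actives have a fitted effect of over 50% in size; the assay follows cell death caused by Vpr and the record does not say whether a fall means rescue or toxicity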
#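 Fission yeast strain RE007, carrying one chromosomally integrated HIV-1 vpr copy, was seeded at OD 0.01 in PMG+AL medium with 23 nL pinned compound. After 24 h at 30 °C and 99% humidity, viability was read by BacTiter-Glo luminescence.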
# Cruzain inh noDet: cruzain (T. cruzi) inhibition without detergent | 200,000 tested, 2.3% active | Potency, µM, for the others: max response, negative = inhibition, usual class: inhibitors | AID 1476 | purified cruzain, Z-FR-AMC fluorescence, no detergent;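 further: plate controls were enzyme without inhibitor for no effect and buffer without enzyme for full effect; nearly all actives have a fitted effect of over 40% in size; top concentration of the series not given in the record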
# Target sequence (P25779 123-467 limits assumed): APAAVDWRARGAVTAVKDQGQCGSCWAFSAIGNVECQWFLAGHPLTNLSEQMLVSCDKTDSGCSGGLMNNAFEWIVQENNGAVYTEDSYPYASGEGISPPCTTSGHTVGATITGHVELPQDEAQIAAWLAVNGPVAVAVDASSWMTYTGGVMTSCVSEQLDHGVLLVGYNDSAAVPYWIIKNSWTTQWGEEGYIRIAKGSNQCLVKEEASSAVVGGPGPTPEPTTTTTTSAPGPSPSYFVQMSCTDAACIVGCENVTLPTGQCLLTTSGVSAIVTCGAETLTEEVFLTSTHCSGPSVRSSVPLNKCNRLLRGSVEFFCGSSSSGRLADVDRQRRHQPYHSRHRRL
#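 Purified cruzain at 1.5 nM, pre-incubated 15 min with compound at room temperature in 100 mM sodium acetate pH 5.5, 5 mM DTT, 0.00005% Triton X-100. Reaction started with 2 uM Z-FR-AMC; AMC fluorescence increase over 60 s gives rate.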
# Cruzain inh Det: inhibitors of Trypanosoma cruzi cruzain with detergent; P25779; Potency, µM, without a hit: max response, negative = inhibition, most hits filed as inhibitors; AID 1478; purified cruzain, Z-FR-AMC fluorescence, 0.01% Triton; 200,000 tested, 0.43% active;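 further: plate controls were neutral wells for no effect and buffer without enzyme for full effect; nearly all actives have a fitted effect of over 40% in size; top concentration of the series not given in the record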
#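 Z-FR-AMC hydrolysis (2 uM substrate) by cruzain (1.5 nM) monitored kinetically at ex 360/em 450 nm after 15 min room-temperature compound exposure; 0.01% Triton X-100, pH 5.5, 5 mM DTT.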
# MARV entry inh: Marburg virus entry inhibition; Marburg virus pseudotyped entry inhibition, cell reporter; control for the full effect not named in the record; about a third of the inactives were read at about 46 µM; Potency, µM (highest dose often 37.8 µM), for the others: at the highest dose activity change, negative = inhibition, actives largely listed as inhibitors; 300,000 tested, 1.8% active; AID 540276; active = well fitted inhibition curve with a large enough effect; inconclusive = small, poorly fitted or top-dose-only effect, or effect the other way; inactive = flat fitted curve, though single readings scatter; tested in HEK293 cells; about a fifth of its hits are not listed in these tables; further: on the % scale 0 is the no-effect control and ±100 the full control effect; luciferase read-out
# NS1 function inh: influenza NS1 inhibition. S. cerevisiae slowed by influenza A NS1, growth recovery by OD600. Potency, µM (top dose mostly 46.1 µM), inactives show at the highest dose activity, positive = more growth. 270,000 tested, 0.4% active. AID 2326; active means well fitted rising curve with a large enough effect; inconclusive means small, poorly fitted or top-dose-only effect; inactive means no such curve, though single readings can be large or run the other way; further: nearly all actives have a fitted effect of over 50% in size
#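 Recovery from NS1-induced slow growth read by OD600 in budding yeast switched to galactose assay medium (pH 6.0, -URA) at 1:100 dilution. Compound 23 nl per well; the matching strain lacking NS1 serves as control.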
# Lassa entry inh: inhibitors of Lassa virus binding or cell entry. AID 540256. Lassa virus pseudotype entry inhibition, cell reporter; control for the full effect not named in the record. 300,000 tested, 1.2% active. Potency, µM (series often up to 37.9 µM), without a hit: top-dose activity change, negative = inhibition, most hits filed as inhibitors; active means well fitted inhibition curve with a large enough effect; inconclusive means small, poorly fitted or top-dose-only effect, or effect the other way; inactive means flat fitted curve, though single readings scatter; tested in HEK293 cells; further: on the % scale 0 is the no-effect control and ±100 the full control effect; nearly all actives have a fitted effect of over 50% in size; luciferase read-out
# * marks the source's active call; other numbers are inactive results; ? = inconclusive; / = not tested or not shown; & = joins results of further samples; [ ] = remark or other dose. Unless noted, the call rests on the fitted dose curve; in most records, active means well fitted curve in the direction sought with a large enough effect; inconclusive means small, poorly fitted or top-dose-only effect, or another doubt; inactive means no such curve, though single readings can be large; an effect the other way counts as inactive or inconclusive. Potency means the concentration at half of the fitted maximal effect.
# Values in the order: SARS PLP yeast	2A StopGo	RE007 growth inh	Cruzain inh noDet	Cruzain inh Det	MARV entry inh	NS1 function inh	Lassa entry inh
N#Cc1cccnc1Nc1cccc(Cl)c1
  1%	14%	9%	0%	-4.9%	-15%	5%	10%
CCOc1ccc(NC(=O)COc2ccc(C(=O)NCCc3ccccc3)cc2)cc1
  -4%	-5%	3%	?	0.5%	-26%	0%	?
Cn1ccnc1SC(=O)N1c2ccccc2Sc2ccccc21
  5%	/	0%	-12%	-9.1%	?	-14%	-14%
CCCC1(C(=O)OCC)NC(c2ccc(OC)cc2OC)C2C(=O)N(c3ccc4c(c3)OCCO4)C(=O)C21 (stereo not drawn)
  -22%	0%	7%	?	-0.3%	-11%	-12%	5%
O=[N+]([O-])c1ccc(N2CCCC(C(F)(F)F)C2)c2ccncc12 (stereo not drawn)
  -51%	?	-29%	/	/	?	-62%	?
CCCCn1c(SCC(=O)N2CCC(C(=O)OCC)CC2)nc2cc(S(N)(=O)=O)ccc21
  18%	-20%	-4%	?	1.3%	-14%&-14%	-3%	15%
c1ccc(CN2CCC(CNc3ncnc4ccccc34)C2)cc1 (stereo not drawn)
  /	-19%	-11%	/	/	?	/	2%[46.1 µM]
COc1cccc(C2C([N+](=O)[O-])=C(N)Oc3cc(C)oc(=O)c32)c1 (stereo not drawn)
  0%	2%	-9%	/	/	8%	4%	10%
CCOC(=O)c1c(NC(=O)COc2ccc(Cl)cc2C)sc(C(C)=O)c1C
  /	-12%	/	-7%	-0.6%	/	/	-10%[46.1 µM]
C[C@@H]1CC=C[C@H]2[C@H]1C(=O)N(Cc1ccccc1)[C@H]2c1ccc2ccccc2c1Br
  -4%	18µM*	1%	/	/	/	-35%	/
COCc1cc(C)nc(NC2CC(C)(C)NC(C)(C)C2)c1C#N
  -1%	-2%	8%	/	/	?	2%	16%[46.1 µM]
O=C(NCCCn1ccnc1)C(=O)NCC1OCCN1S(=O)(=O)c1ccc(Cl)cc1 (stereo not drawn)
  -1%	-16%	-1%	3%	-0.4%	-7%	-1%	-7%
CCC1(C(=O)c2ccc(C)cc2)C2c3ccccc3OC(=O)C21C(=O)O (stereo not drawn)
  0%	-10%	-2%	/	/	2%[46.1 µM]	4%	6%
CC(C)Oc1cccc(C(=O)C2CCCN(Cc3cnc(N4CCOCC4)s3)C2)c1 (stereo not drawn)
  0%	?	-13%	/	/	?	2%	?
CO/N=C/NC(=O)c1c(OC)ccnc1Oc1ccc(F)cc1
  5%	/	0%	-7%	5.9%	?	4%	-17%
Cc1ccc(Nc2nc(C)cs2)cc1
  0%	-8%	-19%	/	/	?	8%	?
O=C(CN1C(=O)/C(=C\c2ccc(C(F)(F)F)cc2)Sc2ccccc21)NCc1ccco1
  13µM*	-18%	2%	?	-1.4%	12%	12%	?
CC1(C)CC(=O)C2=C(C1)Nc1[nH]n(-c3ccccc3)c(=O)c1C2c1ccc2c(c1)OCO2 (stereo not drawn)
  5%	112%[activator]	16%	?	-6.3%	3%	13%	-13%
CCOC(=O)c1ccc(Cn2cnc3ccccc3c2=O)cc1
  1%	2%	17%	3%	-0.2%	21%	-5%	-1%
O=C(O)c1cccc(N/N=C/c2sc(N3CCOCC3)nc2-c2ccccc2)c1
  -2%	49%[activator]	-19%	8%	-12%	?	?	5%
COc1ccc(Br)c2c1-c1nc(NC(=O)c3cccc(C)c3)sc1C2
  /	-7%	/	6.3µM*	-2.4%	3%[46.1 µM]	/	-13%[46.1 µM]
Cc1nc2cc(-c3cccc(F)c3)nn2c(N2CCN(C(=O)c3ccco3)CC2)c1C
  0%	?	-2%	?	-24%	24%	2%	14%
Cc1cccc(C(=O)NCCNC(=O)c2ccco2)c1
  1%	11%	8%	/	/	6%[46.1 µM]	10%	1%[46.1 µM]
NS(=O)(=O)c1ccc(CCNC(=S)Nc2ccc(S(N)(=O)=O)cc2)cc1
  5%	-24%	13%	-3%	-2.8%	26%	2%	3%
Cc1cc(Nc2ccc(C)c(Cl)c2)n2nc(Cc3ccccc3)nc2n1
  /	?	/	14%	-1.8%	-2%[46.1 µM]	/	?
COc1ccc(Br)cc1/C=N/NC(=O)CNC(=O)C1COc2ccccc2O1 (stereo not drawn)
  -6%	-13%	9%	/	/	-22%[46.1 µM]	-14%	11%[46.1 µM]
CSc1ccc(CN2C(=O)NC3(CCCCCCC3)C2=O)cc1
  -3%	-26%	?	/	/	?	/	1%
COc1cccc(-n2nc(C(C)=O)c(C#N)c2-c2ccco2)c1
  -1%	-19%	7%	-11%	-0.7%	19%	7%	0%
COc1ccc(-c2nn(C)c3sc(C(=O)Nc4cc(OC)c(OC)c(OC)c4)cc23)cc1OC
  /	-11%	/	?	-7.0%	?	/	?
O=S(=O)(Nc1ccc(O)c(Sc2nc3ccccc3s2)c1)c1cc(Cl)ccc1Cl
  /	1%	/	4%	-6.1%	?	/	19%[46.1 µM]
CSCCC(=O)N1CCCC(N2CCN(c3cccc(C(F)(F)F)c3)CC2)C1 (stereo not drawn)
  1%	-11%	-5%	/	/	/	-9%	/
Cc1cc(Br)ccc1NC(=O)c1cn(C2CCCC2)c(=O)c2c1c1ccccc1n2C
  /	-11%	/	-1%	-0.8%	?	/	5%[46.1 µM]
CN1CCN(C(=O)c2ccc3c(c2)N(Cc2ccccc2F)C(=O)c2ccccc2S3=O)CC1 (stereo not drawn)
  5%	0%	-7%	/	/	/	-7%	/
COc1ccc(C)cc1NS(=O)(=O)c1ccc2c(c1)oc(=O)n2C
  3%	19%	-9%	/	/	/	-6%	/
O=C(Nc1ccccc1)c1ccc(Br)c(S(=O)(=O)Nc2ccccn2)c1
  1%	18%	-1%	/	/	10%	-2%	18%
O=C(O)/C=C/C(O)c1ccc(Cl)cc1 (stereo not drawn)
  /	-18%	-5%	4%	-4.2%	0%&5%&5%	3%	?
CCn1c(SCC(=O)c2cccs2)nnc1-c1ccco1
  3%	58%[activator]	5%	-8%	-3.1%	8%	-48%	?
Cc1ccc(NC(=O)c2cc(-c3cccs3)on2)cc1
  4%	46%[activator]	9%	?	-4.0%	?	2%	-11%
COCCCNC(=S)NC1CC2CCCC(C1)N2Cc1ccco1 (stereo not drawn)
  3%	11%	7%	2%	-2.8%	-16%	-3%	?
Cc1cc(C)cc(N2C(=O)N(Cc3cccc(F)c3)c3ccccc3S2(=O)=O)c1
  /	-17%	/	?	-1.1%	/	/	-17%[46.1 µM]
CC(C)(C)OCC1CO1 (stereo not drawn)
  -4%	-1%	-3%	5%	3.9%	/	/	/
Cc1ccc(-c2cn3c(n2)sc2cc(C(=O)NCCC4=CCCCC4)ccc23)c(C)c1
  /	30%[activator]	/	?	0.3%	/	/	6%[46.1 µM]
O=C(NC(=S)Nc1ccc(CN2CCOCC2)cc1)c1cccc([N+](=O)[O-])c1
  -24%	9%	-21%	13%	-7.8%	-9%	14%	13%
CCOC(=O)CC1CCCCN1C(=O)CCCn1nnnc1CN1CCC(C)CC1 (stereo not drawn)
  ?	-3%	-8%	/	/	3%	-9%	5%
CCC(Oc1ccc(F)cc1)C(=O)Nc1cc(-c2ccc(C)cc2)no1 (stereo not drawn)
  /	-3%	/	4%	-11%	-11%[46.1 µM]	/	4%[46.1 µM]
C=CCOc1ccccc1CN1CCC(CO)(CCOc2ccccc2)CC1
  0%	1%	-18%	/	/	?	0%	?
OC(COc1c(Cl)cc(Cl)cc1Cl)CN1CCCCC1 (stereo not drawn)
  1%	-1%	-6%	1%	-0.9%	?	-2%	-14%
C/C(=N\Nc1ccc(C(=O)O)cc1)c1nc2ccccc2n1C
  -8%	/	/	11%	-6.8%	/	3%	/
COc1ccc(C(=O)c2c(N)c(-c3nc(-c4ccccc4)cs3)c3ccccn23)cc1
  /	31%[activator]	/	7.9µM*	-2.9%	8%[46.1 µM]	/	23%[46.1 µM]
Cc1cc(NCCCCCCCNc2cc(C)nc3cc([N+](=O)[O-])ccc23)c2ccc([N+](=O)[O-])cc2n1
  /	0%	-21%	/	/	?	/	?

# Continuation.
# Values in the order: SARS PLP yeast	2A StopGo	RE007 growth inh	Cruzain inh noDet	Cruzain inh Det	MARV entry inh	NS1 function inh	Lassa entry inh
O=C(Nc1ccc2c(c1)C(=O)N(C1CCCCC1)C2=O)C1CCCO1 (stereo not drawn)
  -27%	18%	3%	9%	-5.3%	-1%	-99%	0%
CCc1ccc(C2CC(c3ccco3)=NN2S(C)(=O)=O)cc1 (stereo not drawn)
  -5%	-23%	-23%	-5%	-1.9%	?	6%	?
COCCN1CCN(Cc2cn(C)nc2-c2cccc(Cl)c2)CC1
  1%	-6%	5%	/	/	29%[46.1 µM]	0%	-12%
Cc1ccc(CNC(=O)C(=O)NCCC2CCCCN2S(=O)(=O)c2cccs2)cc1 (stereo not drawn)
  /	?	3%	/	/	?	/	?
O=C1CC[C@@]23CCCN2C(=O)CCCC3C1 (stereo partly drawn)
  3%	-11%	1%	0%	-0.6%	/	/	/
O=C(O)C1CCCCC1C(=O)OCCCCOC(=O)C1CCCCC1C(=O)O (stereo not drawn)
  4%	-6%	15%	-1%	3.3%	1%	1%	-3%
Cc1cnc(NC(=O)CSc2ncn(-c3ccccc3)n2)s1
  14%	0%	8%	4%	-0.4%	13%	1%	7%
CCOC(=O)c1ccc(CN(Cc2ccc(Br)cc2)S(=O)(=O)c2cccc(Cl)c2C)cc1
  /	-25%	/	-2%	0.8%	/	/	?
COc1cccc(NC(=O)CC(=O)c2ccc([N+](=O)[O-])cc2)c1
  -1%	19%	5%	/	/	/	-4%	/
COc1ccccc1OCc1ccc(C(=O)N2N=C(C(F)F)CC2(O)C(F)F)o1 (stereo not drawn)
  10%	-12%	10%	-4%	-2.1%	-30%	-12%	1%
COC(C[C@H]1O[C@H]1[C@H](O)[C@H](C)OCc1ccccc1)OC
  -1%	-12%	-5%	/	/	/	2%	/
O=C(Nc1nc2ccccc2n1CCN1CCCCC1)c1ccco1
  -2%	5%	-7%	-5%	-7.8%	-24%	1%	5%
